# Compound activity deposited in PubChem by National Center for Advancing Translational Sciences (NCATS).
# GLA inh pH 4.5 = qHTS Assay for Inhibitors of Human alpha-Galactosidase at pH 4.5. activity change, negative = inhibition, % at 105 µM. Alpha-galactosidase A (Homo sapiens), P06280. 230,000 tested, under 10 active. purified enzyme, 4-MU-alpha-Gal fluorescence, pH 4.5; inconclusive = small, poorly fitted or top-dose-only inhibition, or a rising curve; inactive = flat fitted curve, though single readings scatter; no compound was filed as active;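 also: 0% = full activity with enzyme and -100% = basal without enzyme; dose as in the result columns while the protocol names 77 µM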
# Rango-impB inh = qHTS Assay for Inhibitors of Rango (Ran-regulated importin-beta cargo) - Importin beta complex formation. AID 540263, 2011. Rango CFP/YFP FRET sensor + importin beta, 45 min. Importin subunit beta-1 (Homo sapiens), Q14974. Potency, µM (titrated, usually from 92.2 µM), without a hit: at the highest dose inhibition of complex formation. actives 0.031% (n = 340,000); active = rising FRET ratio curve, often small or poorly fitted; inconclusive = mostly compound fluorescence or quenching in the first reads; inactive = flat curves in all reads;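 also: potency is read from the fitted curve at half-maximal effect; 0% = DMSO wells and 100% = buffer wells lacking importin beta; nearly all actives have a fitted effect of over 15% in size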
# Target sequence (Q14974 whole entry, looked up): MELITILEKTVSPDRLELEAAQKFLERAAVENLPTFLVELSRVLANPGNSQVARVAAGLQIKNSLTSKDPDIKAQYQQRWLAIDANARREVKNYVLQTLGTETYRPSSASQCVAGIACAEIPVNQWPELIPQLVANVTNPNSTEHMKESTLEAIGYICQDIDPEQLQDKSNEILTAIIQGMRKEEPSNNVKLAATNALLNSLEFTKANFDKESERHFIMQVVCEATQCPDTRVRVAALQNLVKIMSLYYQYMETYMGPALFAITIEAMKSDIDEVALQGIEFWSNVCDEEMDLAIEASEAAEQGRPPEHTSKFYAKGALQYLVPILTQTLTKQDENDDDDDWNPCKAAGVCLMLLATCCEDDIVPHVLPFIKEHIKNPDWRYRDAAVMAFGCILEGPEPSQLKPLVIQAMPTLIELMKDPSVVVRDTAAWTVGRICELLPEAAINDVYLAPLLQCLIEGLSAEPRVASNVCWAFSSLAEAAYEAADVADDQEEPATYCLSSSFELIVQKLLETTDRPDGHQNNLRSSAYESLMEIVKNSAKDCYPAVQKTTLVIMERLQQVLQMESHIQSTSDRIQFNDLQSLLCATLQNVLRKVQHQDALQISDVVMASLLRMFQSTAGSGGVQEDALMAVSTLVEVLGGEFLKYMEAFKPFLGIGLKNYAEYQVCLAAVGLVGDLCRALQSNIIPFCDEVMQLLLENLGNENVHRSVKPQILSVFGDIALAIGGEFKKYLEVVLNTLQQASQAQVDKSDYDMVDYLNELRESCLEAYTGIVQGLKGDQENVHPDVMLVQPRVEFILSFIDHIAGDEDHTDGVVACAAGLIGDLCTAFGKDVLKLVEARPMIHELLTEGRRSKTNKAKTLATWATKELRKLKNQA
#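 FRET biosensor Rango (snurportin 1 IBB between N-terminal EYFP and C-terminal Cerulean), 50 nM in PBS/1 mM DTT/0.02% Tween-20/0.1% BSA, preincubated 5 min RT with compound; 0.125 microM importin beta added, 45 min RT, CFP/YFP FRET ratio read.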
# Rango release inh = qHTS Assay for Inhibitors of RanGTP induced Rango (Ran-regulated importin-beta cargo) - Importin beta complex dissociation; Snurportin-1 (Homo sapiens) + GTP-binding nuclear protein Ran (Homo sapiens) + Importin …; Biochemical FRET Rango-importin beta, RanGTP-induced dissociation; Potency, µM (titrated, usually from 46.1 µM), for the others: at the highest dose activity change, negative = inhibition; actives 0.071% (n = 340,000); AID 540253, 2011; active means falling FRET ratio curve, often poorly fitted, with flat reads before Ran was added; inconclusive means other falling curves, or compound fluorescence or quenching; inactive means flat or rising ratio curve;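 also: potency is read from the fitted curve at half-maximal effect; % of control where 0% means no effect; nearly all actives have a fitted effect of over 45% in size; -100% = wells without RanGTP and RCC1; the record marks most hits as doubtful in a second field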
#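 Recombinant Rango FRET biosensor (EYFP–snurportin 1 IBB–cerulean CFP10) at 0.1 uM premixed with 0.25 uM importin beta in PBS, 1 mM DTT, 0.02% Tween-20, 0.1% BSA. Compound added 5 min; RanGTP-RCC1 (0.6 uM Ran, 2 mM GTP, 0.2 uM RCC1) then triggers release, read at 45 min.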
# miR-21 reporter = qHTS Assay for Modulators of miRNAs and/orActivators of miR-21 | HeLa miR-21 FLuc reporter, luciferase, 48 h | Potency, µM (series often up to 38.3 µM), without a hit: at the highest dose reporter change, positive = more light | 340,000 tested, under 10 active; active = well fitted rising curve with a large enough effect; inconclusive = small, poorly fitted or top-dose-only effect; inactive = no such curve, though single readings can be large or run the other way;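 also: % of control where 0% means no effect; miR-21 action dims this reporter so a rising signal means less miR-21 action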
#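 Compounds were titrated across several concentrations (up to approximately 40 uM) and incubated 48 hours with HeLa miR-21-FLuc reporter cells (miR-21 target sequence downstream of FLuc, endogenous miR-21). Readout was firefly luciferase luminescence after lytic detection reagent.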
# An asterisk follows results filed as active; ? = inconclusive; . = not tested or not shown; & = joins results of further samples; [ ] = another dose, or the depositor's remark.
GLA inh pH 4.5 | Rango-impB inh | Rango release inh | miR-21 reporter | canonical_smiles
. | -0.2% | 1% | -10% | CCOCCC(=O)Nc1nnc(CCc2ccccc2)s1
10 | ? | -14% | -23% | C(=C\c1cccc2ccccc12)/c1nnc(-c2cccs2)o1
4 | -0.5% | 4% | -22% | Cc1nn2c(COc3ccc(NC(=O)C(C)C)cc3)nnc2c2ccccc12
. | 0.4% | -8% | 12% | Cc1ccc(NC(=O)c2cccc(S(=O)(=O)N3CCCCC3)c2)cc1
2 | 2.4% | -14% | -3% | CCOc1cccc(OCCCCN2CCCCC2)c1
0 | 0.5% | 1% | 5% | NC(=O)CCn1cnc2ccccc21
. | -2.2% | 1% | . | Cc1cc(NC(=O)COC(=O)c2c(C)c(C)c(C)c(C)c2C)no1
10 | 0.1% | 3% | 12% | Cc1cccc(NC(=O)c2ccc(C(=O)Nc3cccc(C)c3)nc2)c1
. | -2.3% | 15% | . | N#Cc1c(C#N)c(SSc2c(C#N)c(C#N)c(N)n2-c2ccccc2)n(-c2ccccc2)c1N
-8 | -0.1% | -7% | -25% | COc1ccc(-c2nnc(SCC(=O)NCc3ccco3)o2)cc1
0 | 1.6% | 11% | -34% | Cc1cc(C)n(-c2ccc(C(=O)N3CCc4ccccc43)cc2)n1
. | -0.4% | 14% | . | CC(=O)N1CCN(S(=O)(=O)c2cccc(C(=O)NNC(=O)Cn3ccc(C(F)(F)F)n3)c2)CC1
6 | 0.2% | 4% | -7% | CSc1ccccc1NC(=O)CN(C)CC(=O)Nc1ccc(Cl)cc1F
9 | -3.2% | 2% | -29% | CCCCN1C(=O)/C(=C2\SC(N3CCCCC3)=NC2=O)c2ccccc21
. | -5.0% | -7% | . | Cc1ccc(S(=O)(=O)N(C)C)cc1NC(=O)COC(=O)Cc1ccccc1F
-23 | -0.7% | -9% | -72% | O=C(NC12CC3CC(CC(C3)C1)C2)c1ccc(-c2cccc(Cl)c2)o1
-1 | 0.5% | -16% | -4% | COc1ccc2cc(C3(C)NC(=O)N(CC(=O)NCc4ccco4)C3=O)ccc2c1 (centres undefined)
-2 | 0.6% | 3% | 1% | COCCNC(=O)c1c(CSc2ccccc2)noc1C(=O)NCc1ccccc1
8 | -2.9% | -12% | 13% | CCOC(=O)N1CCN(S(=O)(=O)c2ccc(C)cc2)C1c1ccccc1 (centres undefined)
-9 | 4.7% | 27% | -17% | COC(=O)c1ccccc1NC(=O)COC(=O)c1ccccc1N=Nc1ccc(N(C)C)cc1
5 | 1.6% | -1% | -2% | CC(SCc1ccccc1)C(=O)NN=C1CCN(C)CC1 (centres undefined)
-5 | 0.6% | 8% | -2% | CCOC(=O)NC(Nc1ncccn1)(C(F)(F)F)C(F)(F)F
. | -1.8% | -3% | . | CCOC(=O)C1(CCOc2ccccc2)CCN(C(=O)CCSC)CC1
. | 0.9% | -4% | 7% | Cc1cccc(NC(=O)C2CCCN(S(=O)(=O)c3ccc4[nH]c(=O)ccc4c3)C2)n1 (centres undefined)
. | 3.7% | -3% | 0% | COc1ccc(OCC(=O)NCCNC(=O)c2ccncc2)cc1
6 | -3.6% | ? | -2% | O=C(c1ccc(N2CN(C(=O)c3ccco3)c3nc4ccccc4nc32)cc1)N1CCOCC1
. | -1.9% | 28% | . | Cc1ccc(S(=O)(=O)N2[C@@H](c3ccccc3)C(C(=O)O)=CC[C@H]2c2cccc(Cl)c2)cc1
-2 | 1.7% | 3% | 5% | C/C(=N\n1c(C)nc2ccccc2c1=O)c1ccc(C)o1
-14 | -1.5% | 25% | -11% | CCCC12CN3CCN(CC(C3)/C1=N\NC(=O)c1ccc(F)cc1)C2
12 | -8.1% | 0% | -1% | CCN(CC(=O)NC1CCS(=O)(=O)C1)c1nc(-c2ccccc2)nc2ccccc12 (centres undefined)

# The list goes on.
GLA inh pH 4.5 | Rango-impB inh | Rango release inh | miR-21 reporter | canonical_smiles
9 | -0.6% | -2% | -1% | COC(=O)c1cccc(NC(=S)Nc2cccc(Cl)c2Cl)c1
. | 0.3% | 28% | -19% | COc1ccccc1/C=C/c1ccc2cccc(O)c2n1
. | -1.8% | -4% | 0% | O=C(O)c1cc(S(=O)(=O)N2CCN(C(c3ccccc3)c3ccccc3)CC2)ccc1Cl
-10 | ? | -7% | 0% | S=C(NCCc1ccccc1)N/N=C/c1ccc(Cl)cc1
-2 | 0.2% | 18% | -5% | O=C(Cn1c(-c2cncs2)nc2ccccc21)NCCc1ccccc1
4 | 1.0% | 21% | -2% | CCc1ncc(C(O)c2cccc3ccccc23)n1C (centres undefined)
2 | 1.3% | 1% | -7% | CC(C)(C)c1cc(CN2CCC(O)CC2)cc(C(C)(C)C)c1O
0 | -3.3% | -8% | -8% | OC1CCN(c2ncnc3nc[nH]c23)CC1
. | 0.0% | -6% | -8% | O=C(O)c1ccc(NCc2cccs2)cc1
0 | -3.2% | 5% | 4% | CCOC(=O)Cc1cnc(NC(=O)CSc2nc(N)cc(N)n2)s1
3 | -0.9% | -5% | -3% | N#Cc1cn(Cc2ccncc2)c(=O)[nH]c1=O
. | 2.2% | 0% | -19% | Cc1cc(C)n(CCNC(=O)c2ccc3c(c2)OCO3)n1
-9 | 3.7% | -12% | -19% | CCCCSc1nnc2[nH]c(=O)cc(N)n12
. | ? | ? | . | CCCCNc1c(-c2cccc(-c3ccc(OC)cc3)c2)nc2ccc(C)cn12
-3 | 3.7% | ? | -1% | CC(C)OC(=O)C(C#N)c1nc2ccccc2nc1N1CCN(Cc2ccccc2)CC1 (centres undefined)
0 | -1.2% | 29% | -10% | O=C(CCn1cccc1)Nc1cc(F)ccc1F
. | -3.8% | 14% | . | COc1ccccc1S(=O)(=O)Nc1ccc2nc(C)sc2c1
5 | -2.0% | 3% | -6% | CCc1nccn1S(=O)(=O)c1ccc2ccccc2c1
. | 4.1% | 6% | 2% | CC(C)Oc1ccc(CCC(=O)NNC(=O)c2ccccc2C(=O)O)cc1
. | -0.9% | -1% | . | CC(C)c1ccc(S(=O)(=O)N2CCN(C(=O)CCNS(=O)(=O)c3ccccc3F)CC2)cc1
-2 | -5.1% | 0% | -2% | CCOC(=O)c1ccccc1NC(=O)N[C@@H](C)C(=O)OC
4 | ? | -5% | -5% | Cc1cc(Cl)ccc1N1C(=O)CC(SCCC(=O)O)C1=O (centres undefined)
-2 | 1.0% | 6% | 3% | CCSc1nnc(NC(=O)CCCOc2ccc(C)cc2)s1
. | -3.4% | -14% | -1% | COc1ccc(C(=O)Nc2ccccc2C(=O)NCc2cccnc2)cc1
. | ? | -3% | . | Cc1ccc2oc3c(SCc4nc5ccccc5[nH]4)nc(C)nc3c2c1
. | 0.1% | -1% | . | O=C(C[C@H]1C[C@H](C(=O)N2CCOCC2)[C@@]2(CCC3CCCC3)c3[nH]c4ccc(Cl)cc4c3CCN2C1=O)NCCCn1ccnc1
0 | -0.9% | 1% | 1% | C=C(C)C(=O)Nc1cccc(C2=NOC3(C2)C[C@@H](C(N)=O)N(C(=O)c2cc([N+](=O)[O-])cc([N+](=O)[O-])c2C)C3)c1 (some centres undefined)
6 | -1.4% | 8% | 0% | CCN(CC)c1ccc(C(=O)OCC(=O)NC(C)(C)C)cc1
. | 1.1% | -3% | . | O=C(c1cc(-c2ccc(Cl)cc2)nc2ccccc12)N1CCOCC1
-5 | 0.1% | 8% | 5% | Cc1ccc(S(=O)(=O)N(CC(=O)Nc2ccccc2C(=O)O)c2cccc(Cl)c2C)cc1

# Next part
GLA inh pH 4.5 | Rango-impB inh | Rango release inh | miR-21 reporter | canonical_smiles
. | 5.9% | 5% | -11% | Cc1cc(NS(=O)(=O)c2ccc(NC(=O)CCCOc3ccccc3C)cc2)no1
-10 | 1.9% | 0% | -3% | COC(=O)c1ccc(/C=C2/SC(=S)N(CCCC(=O)Nc3ccccn3)C2=O)cc1
7 | 2.7% | -4% | -6% | O=C(Cc1nnc(NC(=O)Nc2ccc(Cl)cc2)s1)NCc1ccccc1
4 | -1.8% | -1% | -2% | CCN(CC)C(=N)N1c2ccccc2CCC1C (centres undefined)
-4 | -5.1% | 5% | -8% | O=C(OC1CCOC1=O)c1cc(-c2ccc(Cl)cc2)nc2ccccc12 (centres undefined)
-9 | 2.8% | 27% | -21% | Cc1ccc(Nc2nc(N/N=C/c3c[nH]c4ccccc34)nc(N3CCOCC3)n2)cc1
. | 5.1% | 28% | -3% | O=C(Nc1ccc(Cl)cc1)Nc1ccon1
. | ? | ? | 0% | Cc1cc(C)c2c(N)c(C(=O)Nc3cccc(C)c3C)sc2n1
7 | 0.4% | -3% | 1% | Cc1onc(-c2ccccc2)c1C(=O)NC(CC(=O)O)c1ccc(OC(C)C)cc1 (centres undefined)
3 | -1.1% | 13% | -1% | COc1ccc(N2CC(C(=O)Nc3ncccc3C)CC2=O)cc1 (centres undefined)
6 | -4.7% | 0% | 0% | COC(=O)CSc1nnc(C)n1-c1cccc(C#N)c1
-8 | -0.1% | 15% | -8% | O=c1nc(N2CCOCC2)ccn1-c1nc(-c2ccccc2)oc1-c1ccccc1
-12 | -0.3% | -6% | -30% | O=C(Nc1ccc(O)cc1)c1cc2ccccc2c(=O)s1
. | ? | ? | -8% | Cc1cc2nc(/C(C#N)=C\c3ccc(-c4ccccc4C(=O)O)o3)[nH]c2cc1C
-8 | 4.8% | -10% | -10% | C=CCn1cc(C(=O)N2CCc3ccccc3C2)c(=O)c2cc(S(=O)(=O)N(CC)CC)ccc21
. | 1.4% | 3% | 1% | COc1cccc(NC(=O)C2C3C=CC4(O3)C2C(=O)N(CCN2CCCCC2)C4C(=O)NC2CCCCC2C)c1 (centres undefined)
0 | ? | -3% | -7% | Cc1cccc(C)c1-n1c(C)nn(-c2ncc(C(F)(F)F)cc2Cl)c1=O
-7 | -0.9% | -4% | -2% | CSc1nc(C)cc(OCC#N)n1
9 | 0.7% | 18% | -6% | C[C@]12CCC3c4ccc(OCC(=O)O)cc4CCC3C1CCC2=O (some centres undefined)
3&-4 | ? | -13% | 1% | COC(=O)CCC(=O)OC1(C)C(=O)C=C2C=C(C3CC3)N(Cc3ccc4c(c3)OCO4)C=C2C1=O (centres undefined)
6 | 3.9% | -19% | -1% | S=C(NN=C1CCCCCC1)Nc1ccc(Cl)cc1
-7 | 1.3% | 0% | -4% | CC(C)n1c(=S)[nH]c2cc(C(F)(F)F)ccc21
. | -0.9% | -11% | . | CSc1ncccc1C(=O)OCC(=O)NC1CCCCC1
0 | -4.6% | 3% | -12% | O=C(Nc1ccc2c(c1)C(=O)NC2=O)c1ccc(S(=O)(=O)N2CCCC2)cc1
-2 | -0.2% | 1% | -31% | C/C(=N\NC(=O)CC(C)C)c1ccc(N2CCCCC2)cc1
. | -0.1% | 1% | -18% | CCSc1nnc(NC(=O)c2c(C)noc2C)s1
-8[21.1 µM] | 4.2% | 0% | -1% | Cc1cc(OCC(O)CN)ccc1Cl (centres undefined)
0 | -0.2% | -4% | -13% | COc1ccc(NC(=O)NCc2ccc3c(c2)OCO3)cc1
-14 | -1.1% | -14% | 0% | O=C(NCCCn1ccnc1)Nc1cccc2ccccc12
-5 | ? | ? | -31% | Cc1ncoc1C(=O)N1CCc2c([nH]c3ccccc23)C1C1CCCCC1 (centres undefined)
0 | -0.4% | 4% | 11% | FC(F)(F)c1cc(-c2ccccc2)nc(NCc2cccnc2)n1
? | ? | ? | -7% | CCCCCCc1cc2cc(C(=O)NCc3ccccc3)c(=N)oc2cc1O

# 3 of the compounds above, with two lines to a compound:
# The line under a structure holds: GLA inh pH 4.5 | Rango-impB inh | Rango release inh | miR-21 reporter
N#Cc1cn(Cc2ccncc2)c(=O)[nH]c1=O
  3 | -0.9% | -5% | -3%
Cc1cc(C)n(CCNC(=O)c2ccc3c(c2)OCO3)n1
  . | 2.2% | 0% | -19%
CCCCSc1nnc2[nH]c(=O)cc(N)n12
  -9 | 3.7% | -12% | -19%

# Some of the compounds tested; the hit share may differ from the screen's.
